Screening results deposited in PubChem BioAssay by National Center for Advancing Translational Sciences (NCATS).
VDR inhibitor – vitamin D3 receptor (human) inhibition; AID 504847; Potency, µM, for inactives: max response, negative = inhibition, most hits filed as inhibitors; 0.93% of 400,000 active; VDR-SRC2-3 peptide fluorescence polarization, 2 h; P11473; active means well fitted inhibition curve with a large enough effect; inconclusive means small, poorly fitted or top-dose-only effect, or another doubt; inactive means no such curve, though single readings can be large or run the other way; further: series mostly up to about 120 µM
Target sequence (P11473 whole entry, looked up): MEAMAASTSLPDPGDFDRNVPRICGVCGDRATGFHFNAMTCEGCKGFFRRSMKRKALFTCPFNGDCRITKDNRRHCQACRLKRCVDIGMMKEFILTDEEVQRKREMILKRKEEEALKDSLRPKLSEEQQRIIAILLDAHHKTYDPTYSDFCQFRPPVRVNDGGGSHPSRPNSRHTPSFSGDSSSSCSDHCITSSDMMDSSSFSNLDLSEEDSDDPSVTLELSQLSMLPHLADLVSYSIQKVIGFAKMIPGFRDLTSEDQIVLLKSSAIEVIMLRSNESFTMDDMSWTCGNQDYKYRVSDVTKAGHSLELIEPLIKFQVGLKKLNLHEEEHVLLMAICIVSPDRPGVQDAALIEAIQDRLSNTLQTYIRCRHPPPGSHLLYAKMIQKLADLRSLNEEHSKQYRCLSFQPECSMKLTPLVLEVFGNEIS
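FP read-out; VDR + SRC2-3 coactivator peptide; 23 nl compound by pintool; 2 h RT incubation; reagents held at 4 deg C, protected from light.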
* hit, by the source's call; ? = inconclusive; & = joins results of further samples. On the % scale 0 is the no-effect control and ±100 the full control effect; potency means the concentration at half of the fitted maximal effect.

SMILES	VDR inhibitor
Cn1c(NC(=O)c2ccccc2NC(=O)C(C)(C)C)nc2ccccc21	3%
O=C(CCn1c(=O)oc2ccccc21)Nc1ccccc1	-1%
CCOC(=O)/C(C#N)=C/c1c(N2CCCCCC2)nc2ccccn2c1=O	9%
COC(=O)c1ccc(-n2nnnc2SCc2nn[nH]n2)cc1	7%
COc1cccc(NC(=O)COC(=O)CNC(=O)C2CCCCC2)c1	4%
C/C(=N\NC(=O)Cc1ccccc1[N+](=O)[O-])c1cccnc1	-14%
COc1ccc(Nc2c(-c3ccco3)nc3ccc(C)cn23)cc1	-19%
CCOC(=O)Nc1ccc2c(c1)N(C(=O)CN1CCN(C)CC1)c1ccccc1S2	14%
C[C@@H]1O[C@@H](OCCC(=O)O)[C@H](O)C[C@H]1O	2%
COCCn1c(=N)c(C(=O)NCCc2ccccc2)cc2c(=O)n3cccc(C)c3nc21	-8%
Cc1nnc(SCC(=O)N2N=C(c3ccc(Cl)cc3)CC2c2ccco2)[nH]c1=O (centres undefined)	-28%
Cc1cc(C(F)(F)F)n2nc(-c3cccs3)cc2n1	-7%
Cc1cc(=O)[nH]c(SCC(=O)NCc2ccc3c(c2)OCO3)n1	18%
N#CC1=C(N)Oc2c(ccc3cccnc23)C1c1ccccc1 (centres undefined)	-13%
Cc1cccc(N(Cc2ccccc2)C(=O)c2cc(S(=O)(=O)N3CCOCC3)ccc2F)c1	8%
C=CCSc1nncn1/N=C/c1ccc(OC)cc1	-2%
CC(C)C(=O)OCc1cc(=O)n2nc(C3CC3)sc2n1	17%
Nc1ccc(CC2SC(=O)NC2=O)cc1 (centres undefined)	-17%
Cc1ccc(Cc2nc3ccccc3nc2SCC(=O)N2CCC(C)CC2)cc1	7%
COc1ccccc1C(=O)Nc1ccnn1C1CCN(Cc2cn(C)c3ccccc23)CC1	2%
CCn1cc(S(=O)(=O)c2ccccc2)c(=O)c2cc(F)c(N3CCN(C)CC3)cc21	-11%
O=C(Nc1cccnc1)c1cc(Br)c(Br)s1	-8%
CCCCOC(=O)c1ccc(N=Nc2c(C)c(C#N)c(O)[nH]c2=O)cc1	-25%
Cc1[nH]nc(N=CC2=C(O)CC(C)(C)CC2=O)c1-c1ccccc1	-6%&-3%
Cc1occc1-c1nnc(SCC(=O)Nc2ccccc2)n1C(C)c1ccccc1 (centres undefined)	11%
Carrying on:
SMILES	VDR inhibitor
Cc1ccc(N(Cc2cccs2)C(=O)c2ccccc2Cl)cc1	5%
Cc1cc(C)cc(N2CCCn3c2nc2c3c(=O)[nH]c(=O)n2C)c1	-4%
O=C(CSc1nc2ccccc2s1)NCCCN1CCOCC1	24%
O=C(NCCC1CC1(Cl)Cl)c1ccc([N+](=O)[O-])cc1 (centres undefined)	?
O=C1NC(=O)/C(=C\c2ccc(OCc3cccc(C(=O)O)c3)c(Cl)c2)N1	-7%
COc1ccccc1Nc1nnc(SCc2nnc(-c3cc(OC)c(OC)c(OC)c3)o2)s1	-17%
CCc1cccc2c1Sc1ccccc1CC2N1CCNCC1 (centres undefined)	5%
CCOC(=O)Cn1cnc(C)c1	10%
CCOc1ccc2[nH]c3nc(SCC(=O)NC4CC4)nnc3c2c1	0%
COc1ccc(CCNC(=O)c2ccccc2-c2ccccc2C(=O)O)cc1OC	-15%
Cc1ccc(C(=O)N2c3ccccc3CC2C)o1 (centres undefined)	-10%
Cc1cc(C)nc(NC(=O)c2ccc(C)c([N+](=O)[O-])c2)n1	-3%
CCC1CCCCN1Cc1nc2ccccc2c(=O)n1CC(C)=O (centres undefined)	-5%
Cc1ccc(-c2nnn(CC(=O)NC3CCN(Cc4ccccc4)CC3)n2)cc1	17%
CCOC(=O)C1(Cc2ccccc2C(F)(F)F)CCN(CC(O)CO)CC1 (centres undefined)	6%
COc1ccc(CC(=O)Nc2ccc(C(=O)NC(C)(C)C)cc2)cc1OC	-1%
COc1cccc(N2CCN(C(=O)c3ccc(Cl)c(NC4=NC5CS(=O)(=O)CC5S4)c3)CC2)c1 (centres undefined)	-15%
COC(=O)c1ccc(NC(=O)CCn2cnnn2)cc1	18%
CCCC/C(C)=N/NC(=O)c1cn(-c2ccccc2)nc1-c1ccccc1	-11%
CCC1CN(C(=O)N2CCC(C(=O)NCCOC)CC2)c2ccccc2O1 (centres undefined)	-2%
CCN1C(=O)[C@H]2[C@@H](c3ccc(-c4ccc(OC)cc4)c(OC)c3)N3CCCC[C@@]3(C(=O)OC)[C@H]2C1=O	8%
CCOP(=O)(OCC)/C(=C/N1CCCCC1)NC(=O)c1ccccc1	-3%
COc1ccc(-c2cc(C(=O)NCCCN3CCOCC3)c3cc(C(C)C)ccc3n2)cc1	-17%
C[C@@H](C(=O)Nc1ccc(SC(F)F)cc1)N1C(=O)C2CCCCC2C1=O (some centres undefined)	?
CCC1CN(S(=O)(=O)c2ccc3c(c2)NC(=O)CC(=O)N3)c2cc(Cl)ccc2O1 (centres undefined)	-1%&15%
New compounds follow
SMILES	VDR inhibitor
C=CCCCCCCCCCBr	-7%
S=c1[nH]nc(CN2CCCCC2)n1Cc1ccccc1	-19%
CCC(C)NC(=O)C(Cc1ccccc1)NS(=O)(=O)c1ccc2c(c1)oc(=O)n2C (centres undefined)	-6%
C=CCNS(=O)(=O)c1ccc2nsnc2c1	7%
COc1ccc(OC)c(C2N(c3ccc(Cl)cc3)C(=O)C3CCCN32)c1 (centres undefined)	3%
CCOc1ccc(CCNC(=O)CCc2c(C)nc3c4c(C)cc(C)nc4nn3c2C)cc1	5%
Cc1nn(C)c2c1c(-c1ccccc1)cc(=O)n2CC(=O)Nc1ccccc1C(F)(F)F	3%
CCN(c1ccc(OC)cc1)S(=O)(=O)c1ccc(-c2cc(C)no2)s1	6%
CCOC(=O)C1C(c2cccs2)NC(=O)N(C)C1(O)C(F)(F)F (centres undefined)	-1%
O=C(Nc1ccc2nc3n(c(=O)c2c1)CCCC3)c1ccc(Cl)nc1	-14%
O=C(Nc1ccc(Cl)cc1)Nc1ccc2c(c1)OCO2	21%
O=C(CN(CCc1ccccc1)C(=O)Cn1nnc(-c2cccs2)n1)NCc1ccco1	-1%
Cc1ccc(-n2ncc3c(=O)n(CC(=O)N4CCCc5ccccc54)cnc32)cc1C	-13%
CCC1SC2=NC(C)=C(C(=O)OCCOC)C(/C=C/c3ccccc3OC)N2C1=O (centres undefined)	-5%
Nn1c(SCC(=O)Nc2cc(C(F)(F)F)ccc2Cl)nncc1=O	-13%
CCOC(=O)c1[nH]c(C)c(CCC(=O)N2CCN(c3ccc(OC)cc3)CC2)c1C	-2%
C=CCN(C(=O)c1csnn1)C(C(=O)NC(C)(C)C)c1ccncc1 (centres undefined)	-16%
COCCOC(=O)C1=C(C)NC(SCC(=O)NC(C)(C)C)=C(C#N)C1c1ccco1 (centres undefined)	-16%
CCOCc1cnc(C)nc1NCC(=O)c1c(C)[nH]c2cc(C)ccc12	3%
Cc1ccc(CSc2ccc(-c3ccco3)nn2)cc1	-4%
Cc1ccc(/C(=N\O)c2oc3c(C)c4oc(=O)cc(C)c4cc3c2C)cc1	-6%
CC(=O)NCCNc1cc(-c2ccccc2C)ncn1	0%
O=C(Cn1c(-c2cscn2)nc2ccccc21)Nc1ccc(Cl)cc1	1%
O=C(NC(=S)Nc1ccccc1N1CCCCC1)c1ccco1	-17%
Cc1ccc2cc(CN(CCCO)S(=O)(=O)c3cccc4nsnc34)c(=O)[nH]c2c1C	13%
Further compounds:
SMILES	VDR inhibitor
O=C(CNC(=O)c1ccccc1F)OCc1cc(=O)n2nc(C3CC3)sc2n1	0%
Cc1cc(NC(=O)/C=C/C(=O)N(c2ccccc2C)C(C(=O)NC2CCCC2)c2ccc(F)cc2)no1 (centres undefined)	1%
CCOc1cc(NC(=O)C2CCCCC2)c(OCC)cc1NC(=O)c1ccco1	9%
O=C(NCCNS(=O)(=O)c1ccc(C(F)(F)F)cc1)N1CCOCC1	3%
COc1ccc(C(=O)NCC2CCCN2S(=O)(=O)c2cccs2)cc1OC (centres undefined)	-7%
CSc1ncc(CN2CCCCC2C(=O)Nc2ccc(Oc3ccccc3)nc2)cn1 (centres undefined)	-1%
Cc1c(Cl)cccc1NC(=S)C(=C([O-])c1ccc(Cl)s1)[n+]1ccccc1	-9%
COCCCNc1nc(NCc2ccccc2OC)c2cnn(C)c2n1	0%
CC(C)(C)NC(NC(=O)Cc1ccccc1)C(Cl)(Cl)Cl (centres undefined)	8%
CCNc1ccc(N=Nc2c(C)n(C)n(-c3ccccc3)c2=O)cc1	1%
O=C(CSc1nnc(NC(=O)c2ccccc2Cl)s1)NC1CC1	-7%
O=C(Nc1nc2ccccc2s1)C1CCN(S(=O)(=O)c2cc([N+](=O)[O-])ccc2Cl)CC1	-1%
COc1ccc(CNC(=O)C2CCN(S(=O)(=O)c3ccc4c(c3)NC(=O)CO4)CC2)cc1	-9%
Cc1c(C(=O)N2CCCCC2)c(S(=O)(=O)N2CCc3ccccc32)c(C)n1C	4%
CC1(C)Cc2c(sc3nc4n(c(=N)c23)CCC4)CO1	-2%
COc1cc(CNC2CCCCCCC2)cc(Cl)c1OCC(N)=O	-10%
COc1ccc(N2CCN(C(=O)c3cccc(S(=O)(=O)N4CCc5ccccc54)c3)CC2)cc1	7%
O=C(Nc1ccnn1C1CCN(Cc2cccc(OCCO)c2)CC1)C1CCCC1	-2%
CCCCCC(=O)N=Nc1c(O)[nH]c2ccc([N+](=O)[O-])cc12	-17%
COc1ccc(Cl)cc1NC(=O)c1sc(-n2nc(C)c(Cc3ccccc3)c2C)nc1C	9%
c1ccc(COC2CCCN(Cc3nc(Cc4ccccc4)no3)C2)cc1 (centres undefined)	1%
CCOc1ccccc1NC(=O)C1(S(=O)(=O)c2ccc(Cl)cc2)CC1	-1%
COC(=O)c1cc(C(=O)c2cc(Br)ccc2O)coc1=N	23%
Cc1ccc(N2C(=O)C(Cl)=C(N3CCN(C)CC3)C2=O)c(C)c1	?
Cc1cc(C)n(CC(O)Cn2c(C)c(C)c3ccccc32)n1 (centres undefined)	13%
(more compounds)
SMILES	VDR inhibitor
Cc1ccc2c(C)ccc(O)c2n1	-13%
CCc1ccccc1NC(=O)/C(=C/c1ccco1)c1ccccc1	-1%
O=C(COC(=O)c1ccncc1)NCc1ccccc1	-8%
CCOC(=O)c1sc2ncnc(Nc3cccc(C(=O)O)c3)c2c1C	21%
COc1ccc(CCNC(=O)C2CC3Cn4c(nc5cc(C)c(C)cc54)C3N2C)cc1 (centres undefined)	9%
CC1(C)CC(=O)C(C(C2=C(O)CC(C)(C)CC2=O)c2cccnc2)C(=O)C1 (centres undefined)	-10%
CCN(CC)C(=O)CSc1nnc(-c2cc(-c3ccc(Cl)cc3)nc3ccccc23)o1	-13%
O=Cc1ccc(-n2cncn2)cc1	-12%
CC1(C)C(=O)Nc2ccccc2N1C(=O)COC(=O)c1cc(Cl)cc(Cl)c1	-3%
COc1cc(C(C[N+](=O)[O-])c2c(-c3ccccc3)cc3ccccn23)cc(OC)c1OC (centres undefined)	-15%
CCN(CC(=O)NCc1ccc(Cl)cc1)C(=O)Cc1ccccc1[N+](=O)[O-]	-6%
O=C(Nc1ccc2c(c1)OCCO2)c1ccc(Br)s1	-5%
OC(CNCc1ccc(F)cc1)(c1ccc(F)cc1)c1ccc(F)cc1	2%
CCOC(=O)c1c(-c2ccco2)csc1NC(=O)COC(=O)c1cnc(C)cn1	-1%
Cc1cc(C(=O)NNS(=O)(=O)c2cc(C(=O)O)ccc2Cl)c(C)n1-c1ccccc1	14%
COc1ncc2ncc(=O)n(Cc3ccc(F)cc3)c2n1	0%
O=C(c1cc(-c2cccc(O)c2)on1)N1CCc2ccccc2C1	-9%
CN(C)C(=O)c1ccc(NC(=O)c2ccccc2-c2ccccc2)cc1	-8%
COc1ccc(N2CCN(c3cc(C)nc4ccc(OC)cc34)CC2)cc1	-7%
CCOc1ccc(NC(=O)CSc2nccn(-c3ccc4c(c3)OCCO4)c2=O)cc1	-17%
Cc1cccn2c(=O)c3cc(C(=O)NC4CCCC4)sc3nc12	10%
COc1ccc(CC(=O)Nc2ccc(/C(C)=N/NC(=O)c3ccc(OC)cc3OC)cc2)cc1	14%
O=C(c1ccco1)n1nc(-c2ccccc2)nc1NCc1ccccc1Cl	?
O=C(NC1CCCc2ccccc21)c1ccccc1 (centres undefined)	9%
CCCCCC(=O)Oc1cccc(N2C(=O)C3CCCCC3C2=O)c1 (centres undefined)	-7%

6 compounds drawn at random from those above, as already listed:
SMILES	VDR inhibitor
CCN(c1ccc(OC)cc1)S(=O)(=O)c1ccc(-c2cc(C)no2)s1	6%
CCOc1ccc2[nH]c3nc(SCC(=O)NC4CC4)nnc3c2c1	0%
O=C(Cn1c(-c2cscn2)nc2ccccc21)Nc1ccc(Cl)cc1	1%
COc1ncc2ncc(=O)n(Cc3ccc(F)cc3)c2n1	0%
O=C(NC1CCCc2ccccc21)c1ccccc1 (centres undefined)	9%
COCCn1c(=N)c(C(=O)NCCc2ccccc2)cc2c(=O)n3cccc(C)c3nc21	-8%

6 entries from above, as a markdown table.
| mol | VDR inhibitor |
| --- | --- |
| CC1(C)C(=O)Nc2ccccc2N1C(=O)COC(=O)c1cc(Cl)cc(Cl)c1 | -3% |
| O=C(c1cc(-c2cccc(O)c2)on1)N1CCc2ccccc2C1 | -9% |
| CCOC(=O)c1c(-c2ccco2)csc1NC(=O)COC(=O)c1cnc(C)cn1 | -1% |
| CCCCCC(=O)Oc1cccc(N2C(=O)C3CCCCC3C2=O)c1 (centres undefined) | -7% |
| CCc1ccccc1NC(=O)/C(=C/c1ccco1)c1ccccc1 | -1% |
| COc1ccc(CCNC(=O)C2CC3Cn4c(nc5cc(C)c(C)cc54)C3N2C)cc1 (centres undefined) | 9% |

Not all compounds are listed; count on the stated rates, not on these rows.
